Screening results deposited in PubChem BioAssay by several laboratories.
Autofluor counter – flagged as autofluorescent in microsphere protease counterscreen | 360,000 tested, 3.1% active | fluorescence intensity (test concentration not listed) | AID 624483 | compound autofluorescence counterscreen, microsphere flow cytometry; active compounds read high;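 active = at least 3 SD above the mean of all compounds, about 16000 in these data; inconclusive = too few beads counted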;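 note: 100 nL of 1 mM stock went into each well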
PrP 5UTR inh – suppresses PrP 5' UTR mRNA reporter expression | cell-based PrP 5' UTR mRNA reporter, plate reader | 340,000 tested, 0.35% active | inhibition, % (test concentration not listed);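 active = every replicate at 50% or more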;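 note: 0 = median of the neutral control wells; tested in H4 reporter cells; numbers are from one replicate; inactives centre near -14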
Sa ugtP lethal – growth inhibition of S. aureus ugtP deletion strain. growth inhibition, % (concentration not given with the values). S. aureus RN4220 ugtP deletion, OD600 growth, 16 h; some inactives read as strong as hits. 330,000 tested, 0.54% active;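 active = z-score under -3 and OD600 up to 0.15 on both plates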;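 note: plate controls were untreated wells for no effect and antibiotic for full effect; wells of about 80 µL received 100 nL stock; the first replicate is given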
Sa RN4220 lethal – kills Staphylococcus aureus RN4220; AID 1259311; S. aureus RN4220 growth, OD600, 16 h; 330,000 tested, 0.33% active; inhibition, % (concentration not given with the values);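 active = z-score of -3 or lower and OD600 up to 0.18 on both plates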;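 note: plate controls were untreated cells for no effect and reference antibiotic for full effect; stock transfer was 100 nL into about 80 µL; one replicate is shown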
Mtb hypoxia rep – inhibitors of hypoxia-regulated fluorescent reporter in Mycobacterium tuberculosis | M. tuberculosis hypoxia-regulated fluorescent reporter, fluorescence | fluorescence inhibition, % (no concentration beside the values) | 300,000 tested, 0.1% active;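 active = 35 to 45% if threefold the growth effect, above 45% if 1.5-fold the growth effect; inactive = the rest, general growth blockers included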;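 note: wells of about 50 µL received 100 nL stock; 0% = vehicle wells and 100% = reference inhibitor wells; whole bacteria with a GFP reporter of the hypoxia response; strong numbers were not always called active; many hits fall short of the cut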
BJeLR lethal – kills HRASV12-expressing BJeLR cells; AID 1554; BJeLR (HRASV12) viability, CellTiter-Glo ATP luminescence, 48 h; reference of the scale not given here; inhibition, % (test concentration not listed); 300,000 tested, 0.17% active;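 active = replicate mean above 50%; inconclusive = above 50% but judged a plate artefact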;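 note: 50 nL library stock added to about 25 µL; numbers are from one replicate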
Mtb hypoxia rep growth – further read-out of Mtb hypoxia rep, marked with its call; growth inhibition, %; measured here: M. tuberculosis growth (absorbance);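 0% = vehicle and 100% = reference antibiotic; read after six days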
The depositor's hits bear a star; u = inconclusive; x = no result given.

[1] Cc1ccccc1COc1cccc(/C=N/NC(=O)c2nnn(-c3nonc3N)c2C)c1
[2] CNC(=O)/C(=C\c1ccco1)NC(=O)c1ccco1
[3] CC1=C(C(=O)Nc2ccccn2)C(c2ccc3c(c2)OCO3)C2=C(CC(C)(C)CC2=O)N1 (stereo unspecified)
[4] COc1ccc(C(=O)C(Cc2cc(C(C)=O)ccc2OC)N2CCCC2)cc1 (stereo unspecified)
[5] CCNc1nnc(SCC(=O)NC2CCCCCC2)s1
[6] CC(C)(C)n1nc2c(c1NC(=O)Cc1ccc([N+](=O)[O-])cc1)CS(=O)(=O)C2
[7] COc1cccc(-c2cc(C(=O)N3CCN(C(c4ccccc4)c4ccccc4)CC3)no2)c1
[8] Cc1ccn2c(Nc3ccc4c(c3)OCO4)c(-c3ccccn3)nc2c1
[9] Cn1c(=O)cc(OCCCC(=O)NCCC2=CCCCC2)c2ccccc21
[10] COCC(C)NC(=O)c1cc(-c2ccccc2OC)on1 (stereo unspecified)

compound no. | 1 | 2 | 3 | 4 | 5 | 6 | 7 | 8 | 9 | 10
Autofluor counter | 5813 | 3522 | 4430 | 4433 | 5488 | 6379 | 10306 | 8747 | 2391 | 10886
PrP 5UTR inh | -31.6 | -20.4 | -26.4 | -21.9 | -17.9 | -2.0 | x | -22.2 | -61.7 | -41.0
Sa ugtP lethal | x | 9.0 | 0.6 | 0.9 | 3.0 | 2.1 | 18.7 | 23.0 | -0.2 | 4.8
Sa RN4220 lethal | x | -0.8 | -1.8 | 5.0 | 1.7 | 0.3 | -1.7 | 48.1 | 3.9 | 6.2
Mtb hypoxia rep | x | 10.4 | -6.3 | 8.4 | 4.7 | 4.4 | 1.5 | 5.9 | 7.4 | 6.9
Mtb hypoxia rep growth | x | -4.9 | -10.8 | 0.0 | -7.9 | 3.4 | 3.6 | 13.8 | 6.9 | -2.5
BJeLR lethal | 12.5 | -17.1 | -4.9 | -2.5 | x | -1.6 | 1.8 | -0.7 | 4.1 | 9.9

Sorted by SMILES length (lowest first): part of the list above.
[2] CNC(=O)/C(=C\c1ccco1)NC(=O)c1ccco1
[9] Cn1c(=O)cc(OCCCC(=O)NCCC2=CCCCC2)c2ccccc21
[4] COc1ccc(C(=O)C(Cc2cc(C(C)=O)ccc2OC)N2CCCC2)cc1 (stereo unspecified)

compound no. | 2 | 9 | 4
Autofluor counter | 3522 | 2391 | 4433
PrP 5UTR inh | -20.4 | -61.7 | -21.9
Sa ugtP lethal | 9.0 | -0.2 | 0.9
Sa RN4220 lethal | -0.8 | 3.9 | 5.0
Mtb hypoxia rep | 10.4 | 7.4 | 8.4
Mtb hypoxia rep growth | -4.9 | 6.9 | 0.0
BJeLR lethal | -17.1 | 4.1 | -2.5

(more compounds)
[11] O=C(CN1CCCCCCC1)N/N=C/c1ccccc1F
[12] O=C(O)C1CC=CCC1C(=O)NCc1ccc2c(c1)OCO2 (stereo unspecified)
[13] COc1ccccc1C(c1nnnn1CCc1ccccc1)N1CCCCCC1 (stereo unspecified)
[14] COc1ccc(Cl)cc1S(=O)(=O)N1CCCC(C(=O)N2CCOCC2)C1 (stereo unspecified)
[15] CCOC(=O)CSC1=C(C#N)C(c2ccc(Cl)cc2)CC(=O)N1 (stereo unspecified)
[16] CCOC(=O)c1ccc(NC(=O)Nc2ccon2)cc1
[17] CC1(C)Cc2c(cnn2-c2cccc(F)c2)C(NC(=O)c2csnn2)C1 (stereo unspecified)
[18] Cc1ccc(-c2cc(C(=O)Nc3nn[nH]n3)c3ccccc3n2)c(C)c1
[19] COc1ccc(OC)c(S(=O)(=O)NCc2cccnc2)c1
[20] CCN(CC)S(=O)(=O)c1ccc2c(c1)nc(SCn1nnc3ccccc3c1=O)n2CC

compound no. | 11 | 12 | 13 | 14 | 15 | 16 | 17 | 18 | 19 | 20
Autofluor counter | 2511 | 23458* | 6397 | u | 5098 | 4497 | 4297 | 11067 | 2290 | 23084*
PrP 5UTR inh | -6.3 | 6.9 | -4.0 | 8.3 | -23.7 | 66.2* | 0.8 | -28.0 | -17.5 | -11.9
Sa ugtP lethal | x | -2.3 | -6.4 | x | 10.3 | -1.9 | 9.0 | 7.8 | -3.3 | 1.8
Sa RN4220 lethal | x | -2.7 | 9.1 | x | 1.6 | 4.3 | 1.4 | 2.8 | 0.0 | 5.8
Mtb hypoxia rep | x | -12.3 | x | x | 14.9 | 2.4 | -5.0 | 4.3 | x | 8.0
Mtb hypoxia rep growth | x | -1.1 | x | x | 8.5 | -3.1 | -3.9 | 1.9 | x | 7.2
BJeLR lethal | 7.0 | -3.0 | 0.6 | -9.8 | 5.6 | 58.0* | 4.8 | -8.2 | 1.7 | 4.0

A second format for some results above.
17) CC1(C)Cc2c(cnn2-c2cccc(F)c2)C(NC(=O)c2csnn2)C1 (stereo unspecified)
  Autofluor counter: 4297
  PrP 5UTR inh: 0.8
  Sa ugtP lethal: 9.0
  Sa RN4220 lethal: 1.4
  Mtb hypoxia rep: -5.0
  Mtb hypoxia rep growth: -3.9
  BJeLR lethal: 4.8

18) Cc1ccc(-c2cc(C(=O)Nc3nn[nH]n3)c3ccccc3n2)c(C)c1
  Autofluor counter: 11067
  PrP 5UTR inh: -28.0
  Sa ugtP lethal: 7.8
  Sa RN4220 lethal: 2.8
  Mtb hypoxia rep: 4.3
  Mtb hypoxia rep growth: 1.9
  BJeLR lethal: -8.2

Full records, looked up by structure. Screens in order: Autofluor counter, PrP 5UTR inh, Sa ugtP lethal, Sa RN4220 lethal, Mtb hypoxia rep, Mtb hypoxia rep growth, BJeLR lethal
`Cc1ccccc1COc1cccc(/C=N/NC(=O)c2nnn(-c3nonc3N)c2C)c1` across the screens: 5813, -31.6, x, x, x, x, 12.5
`COCC(C)NC(=O)c1cc(-c2ccccc2OC)on1` (stereo unspecified) across the screens: 10886, -41.0, 4.8, 6.2, 6.9, -2.5, 9.9
`CCNc1nnc(SCC(=O)NC2CCCCCC2)s1` across the screens: 5488, -17.9, 3.0, 1.7, 4.7, -7.9, x
`CC(C)(C)n1nc2c(c1NC(=O)Cc1ccc([N+](=O)[O-])cc1)CS(=O)(=O)C2` across the screens: 6379, -2.0, 2.1, 0.3, 4.4, 3.4, -1.6

Going on with the list:
[21] Cc1ccc(S(=O)(=O)N2CCC(C(=O)NCCCN3CCCC3=O)CC2)cc1
[22] COc1ccc(CC(=O)OCC(=O)Nc2ccc(Cl)cn2)cc1
[23] COc1ccc(S(N)(=O)=O)cc1C(=O)OCC(=O)N1CC(=O)Nc2ccccc21
[24] O=C(CSc1nnc(SCc2ccccc2)s1)NN=C/C=C\c1ccco1
[25] CCOc1ccc(-c2cccc(NC(=O)c3cccs3)c2)nn1
[26] CC/C(=N\NC(=O)c1ccc(Br)cc1)c1ccccc1
[27] Cc1ccc(C(=O)Nc2ccc3c(c2)CCC3)o1
[28] O=C(NCCN1CCOCC1)c1cc(-c2ccc(F)cc2)nc2ccccc12
[29] O=C(COc1ccc2c3c(c(=O)oc2c1)CCC3)NC(Cc1ccc(Cl)cc1)C(=O)O (stereo unspecified)
[30] CC1(/[N+]([O-])=C/c2ccc(F)cc2)CCCCC1=O (stereo unspecified)

compound no. | 21 | 22 | 23 | 24 | 25 | 26 | 27 | 28 | 29 | 30
Autofluor counter | 4105 | 2936 | u | x | x | 2506 | 10156 | u | 4979 | 3913
PrP 5UTR inh | -9.5 | -18.7 | -20.3 | x | -6.0 | -20.3 | -52.0 | 4.9 | -18.8 | -18.2
Sa ugtP lethal | 13.1 | 10.6 | 6.7 | -16.6 | -0.5 | x | -0.7 | 10.4 | 4.1 | 4.8
Sa RN4220 lethal | 2.6 | 17.9 | 1.5 | 4.2 | 3.5 | x | 5.5 | 6.1 | -0.4 | 3.0
Mtb hypoxia rep | 4.2 | 6.5 | 8.8 | 5.5 | -5.4 | x | 8.5 | 6.3 | x | -7.2
Mtb hypoxia rep growth | 6.1 | -3.2 | -5.4 | 0.5 | 1.5 | x | 8.7 | 2.9 | x | -1.7
BJeLR lethal | x | -8.2 | x | x | -3.6 | -7.8 | 7.1 | -7.6 | -5.2 | -3.0

Gathered by group: the entries above with a COOH group.
[12] O=C(O)C1CC=CCC1C(=O)NCc1ccc2c(c1)OCO2 (stereo unspecified)
[29] O=C(COc1ccc2c3c(c(=O)oc2c1)CCC3)NC(Cc1ccc(Cl)cc1)C(=O)O (stereo unspecified)

compound no. | 12 | 29
Autofluor counter | 23458* | 4979
PrP 5UTR inh | 6.9 | -18.8
Sa ugtP lethal | -2.3 | 4.1
Sa RN4220 lethal | -2.7 | -0.4
Mtb hypoxia rep | -12.3 | x
Mtb hypoxia rep growth | -1.1 | x
BJeLR lethal | -3.0 | -5.2

Other structures:
[31] O=C(Cn1ncc2c(=O)oc3ccccc3c21)N1CCc2ccccc2C1
[32] CCOCCOc1nc2c(c(=O)n(C)c(=O)n2C)n1Cc1ccc(C)cc1
[33] C[n+]1ccccc1Nc1cc([N+](=O)[O-])ccc1N
[34] COc1ccc(/C=N/NC(=O)c2ccc(NC(=O)C3CCCCC3)cc2)cc1O
[35] CCOC(=O)C1CCN(c2c(NCc3ccc(C(=O)NC(C)CC)cc3)c(=O)c2=O)CC1 (stereo unspecified)
[36] CN(C)S(=O)(=O)c1ccc(N2CCCC2)c(C(=O)NC2CCC(O)CC2)c1 (stereo unspecified)
[37] Cc1onc(-c2ccccc2Cl)c1C(=O)Nc1ccc(F)c(F)c1
[38] CCN(CC)CCCNC(=O)CSc1nc(C)cc(C)n1

compound no. | 31 | 32 | 33 | 34 | 35 | 36 | 37 | 38
Autofluor counter | 4160 | 4218 | 3369 | 4419 | 2205 | u | 22619* | 3472
PrP 5UTR inh | 10.8 | -12.2 | -12.4 | -13.7 | -7.8 | -9.4 | -25.7 | -9.3
Sa ugtP lethal | -9.7 | 1.9 | 2.4 | x | -0.1 | 4.9 | -8.1 | 1.2
Sa RN4220 lethal | 7.6 | 2.2 | 1.8 | x | 5.9 | 3.4 | 3.7 | 4.4
Mtb hypoxia rep | 2.5 | 6.4 | -1.8 | x | x | 5.3 | 12.3 | 8.4
Mtb hypoxia rep growth | 10.8 | 1.9 | -6.9 | x | x | 2.0 | 8.3 | 7.5
BJeLR lethal | -18.4 | 14.8 | 0.2 | 4.4 | 1.9 | -10.4 | 2.8 | 1.8
